# VDR inhibitor: blocks the human vitamin D receptor. Potency, µM, for the others: max response, negative = inhibition, hits mostly inhibitors. 400,000 tested, 0.93% active. P11473. VDR-SRC2-3 peptide fluorescence polarization, 2 h; active = well fitted inhibition curve with a large enough effect; inconclusive = small, poorly fitted or top-dose-only effect, or another doubt; inactive = no such curve, though single readings can be large or run the other way; also: series mostly up to about 120 µM
# Target sequence (P11473 whole entry, looked up): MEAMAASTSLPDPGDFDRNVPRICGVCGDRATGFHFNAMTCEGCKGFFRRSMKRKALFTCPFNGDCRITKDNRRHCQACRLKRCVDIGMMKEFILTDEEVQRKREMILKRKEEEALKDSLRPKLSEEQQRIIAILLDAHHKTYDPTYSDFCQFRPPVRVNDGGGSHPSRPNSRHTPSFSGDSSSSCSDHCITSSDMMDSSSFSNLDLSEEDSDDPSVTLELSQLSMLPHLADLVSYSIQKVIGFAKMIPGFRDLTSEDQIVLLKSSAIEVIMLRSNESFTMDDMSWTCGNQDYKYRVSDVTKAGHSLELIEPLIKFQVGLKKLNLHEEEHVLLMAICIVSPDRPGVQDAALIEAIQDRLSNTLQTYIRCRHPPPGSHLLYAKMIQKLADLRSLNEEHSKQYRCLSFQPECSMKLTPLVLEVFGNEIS
#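 Reagent solutions, kept cold and dark, are dispensed first; compounds are then pinned in at 23 nl, plates briefly spun, and incubated 2 h at ambient temperature. Inhibition of VDR–SRC2-3 peptide binding is read by fluorescence polarization.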
# Starred values were filed as active, the others as inactive; u = inconclusive; & = joins results of further samples. % is scaled to controls: 0 for no effect and ±100 for the full control effect; potency is read from the fitted curve at half-maximal effect.
no. | VDR inhibitor | compound
1 | -13.3% | COc1ccc(N2CC(C(=O)Nc3nnc(SCC(=O)NC(C)(C)C)s3)CC2=O)cc1 (configuration not stated)
2 | 8.0% | COc1cc(OC)cc(C(=O)N[C@H](C(=O)NC23CC4CC(CC(C4)C2)C3)C(C)C)c1
3 | 8.4% | COc1ccc(NC(=O)Cn2c(=O)n(Cc3ccco3)c(=O)c3cc(OC)c(OC)cc32)cc1
4 | -11.7% | CSc1nc(C(C)C)ccc1CNC(=O)CC(C)c1ccccc1 (configuration not stated)
5 | -12.5% | CCCCOc1nc2c(c(=O)n(C)c(=O)n2C)n1C
6 | -2.3% | CN1CCN(CCNC(=O)Cn2c(=O)c3cccn3c3ccc(F)cc32)CC1
7 | 9.8% | NC(=O)NC(CC(=O)N1CCc2ccccc2C1)c1ccc(Cl)cc1 (configuration not stated)
8 | 7.5% | Cc1nn(C)cc1CNC(=O)/C=C/c1cnn(C)c1
9 | 2.8% | COC(=O)c1ccccc1NC(=O)c1cnc(Nc2ccc(OC)cc2)c2ccccc12
10 | 7.3%&-2.9% | COCCCNc1nc2cc(OC)c(OC)cc2c2nc(-c3ccccc3)nn12
11 | -3.4% | CCCCn1c(N)c(N(CCC(C)C)C(=O)C2=NN(c3ccccc3)C(=O)CC2)c(=O)[nH]c1=O
12 | 15.1% | O=C(COc1ccc(Cl)cc1)NC1CC1
13 | -3.3% | CCC(CC)NC(=O)COC(=O)c1cccc(C)c1O
14 | 2.3% | O=C1CCCC2=C1C(c1ccccc1)C1C(=O)c3ccccc3C1=N2 (configuration not stated)
15 | -26.6% | Cc1nc(N2CCN(c3ccccn3)CC2)c2c(C)c(C(=O)Nc3ccc(F)cc3Cl)sc2n1
16 | -5.8% | Cc1ccc(NC(=O)c2ccc(NC(=O)N3CCSc4ncccc43)cc2)c(C)c1
17 | u | Cc1ccc(N=C2C(=O)Nc3ccc(C)c(Br)c32)cc1
18 | -11.0% | CCCCN(C(=O)CCNC(=O)NC12CC3CC(CC(C3)C1)C2)c1c(N)n(CCCC)c(=O)[nH]c1=O
19 | 0.6% | CC1CN(c2nnc(NC(=O)c3ccccc3)s2)CC(C)O1 (configuration not stated)
20 | -2.1% | O=[N+]([O-])c1ccc(C=NN=Cc2ccc([N+](=O)[O-])cc2)cc1
21 | -7.8% | CCN(C[C@H]1N[C@@](CC)(C(=O)OC)[C@H]2C(=O)N(Cc3ccccc3)C(=O)[C@@H]12)C(=O)c1ccccc1
22 | -11.2% | COc1cccc(C(=O)N2CCN(S(C)(=O)=O)CC2)c1
23 | 6.8% | CCN1C(=NCC2CC2)N[C@@H](c2ccccc2)C(C(=O)OC)=C1C
24 | 6.0% | COc1ccc(S(=O)(=O)N2CCC(c3cc(-c4cccc5ccccc45)n[nH]3)CC2)cc1
25 | 5.7% | COc1cc([C@@H]2CC=C(C(=O)O)[C@H](c3ccccc3F)N2S(=O)(=O)c2ccc(C)cc2)cc(OC)c1OC
26 | -7.7% | CC(=O)c1cccc(NC(=O)c2cccc(S(=O)(=O)N3CCOCC3)c2)c1
27 | -3.6% | O=C(CSCc1ccc(Cl)cc1)Nc1ccc(O)cc1C(=O)O
28 | -1.1% | O=C(CCN1C(=O)C2C3C=CC(C3)C2C1=O)Nc1ccc(F)cc1 (configuration not stated)
29 | -6.9% | CC(=O)c1nnn(-c2c(F)cccc2F)c1C
30 | -2.0% | Cc1cc(C)c2oc(C(=O)Nc3nc4ccc(Cl)cc4s3)cc(=O)c2c1
31 | 1.3% | OCCCCc1nccc2c1[nH]c1ccccc12
32 | -7.3% | CCOC(=O)N1CCC(NC(=O)CS(=O)(=O)Cc2nc(-c3ccccc3Cl)oc2C)CC1
33 | 15.8% | Cc1ccc(OCC(=O)Nc2cccc(C(=O)OCc3cc(=O)n4c(C)csc4n3)c2)cc1
34 | 16.9% | CC(=O)N1c2ccc(S(=O)(=O)NCC3CCC(C(=O)Nc4cccc(C)c4C)CC3)cc2CC1C (configuration not stated)
35 | 4.7% | COc1ccccc1CN(C(=O)CNC(=O)c1ccco1)C(C(=O)NCC1CCCO1)c1ccc(OC)c(OC)c1 (configuration not stated)
36 | 22.4µM* | COC(=O)c1cc(=O)c(O)c2c(O)c(O)ccc2c1
37 | 2.6% | Cc1ccc(S(=O)(=O)NCCC(=O)NCc2ccc3c(c2)OCO3)cc1C
38 | -10.1% | Cn1cnc2c(=O)[nH]cc([N+](=O)[O-])c21
39 | -1.0% | CCCCSc1nc2[nH]ncc2c(=O)[nH]1
40 | -3.0% | COCCNC(=O)C1(C(F)(F)F)C/C(=C/CCO)CCCO1 (configuration not stated)
41 | 12.2% | Cc1ccc(S(=O)(=O)NCCc2csc3nc(-c4ccccc4F)nn23)cc1C
42 | -20.1% | Cc1cc(C)cc(NC(=S)/C(=C(\[O-])c2ccc(Cl)s2)[n+]2cccc(C)c2)c1
43 | -3.6% | Cc1ccc(NC=C(S(=O)(=O)c2ccccc2)S(=O)(=O)c2ccccc2)cc1
44 | -0.4% | Clc1cccc(Cl)c1-c1nnc2cccc(Cl)n12
45 | -4.6% | Cc1ccc(S(=O)(=O)N(C)c2cc(S(=O)(=O)N3CCC(C)CC3)c(C)cc2C)cc1
46 | -3.3% | CCC(CC)C(=O)OCc1cc(=O)n2nc(C3CC3)sc2n1
47 | -4.0% | Cc1cc2c(OCC(O)CNC(C)(C)C)cccc2[nH]1 (configuration not stated)
48 | 10.9% | O=C(CNC(=O)c1sc2ccccc2c1Cl)NCc1cccc(C(F)(F)F)c1
49 | -14.9% | C#CCNC(=O)C1=C[C@@H](C2CC2)C[C@@H](OCCCCO)O1
50 | -14.3% | Cc1ccc(NC(=O)CN(C)C(=O)CSc2ccc3c(c2)OCCO3)cc1
51 | -2.6% | O=C(Nc1cc(Cl)ccc1O)c1cc(-c2ccc3c(c2)OCO3)on1
52 | 11.4% | COc1ccc(NC(=O)Cc2csc(COc3cccc(C)c3)n2)c(OC)c1
53 | -16.9% | CCOC(=O)c1sc(NC(=O)CSc2ncccn2)nc1C
54 | -15.0% | S=C(Nc1ccc(N2CCOCC2)cc1)Nc1ccc2snnc2c1
55 | 5.0% | Cc1ccc(-n2nnnc2SCC(=O)NCC2(N3CCOCC3)CCCCC2)c(C)c1
56 | 9.9% | Cc1ccc2c(c1)sc1nc(-c3cc4cc(Cl)ccc4oc3=O)cn12
57 | 26.4% | CCC(C)c1ccc(NC(=O)Nc2cnccn2)cc1 (configuration not stated)
58 | -2.7% | CCC(C)(C)n1nnnc1C(c1cc(OC)c(OC)c(OC)c1)N1CCN(c2ccccc2)CC1 (configuration not stated)
59 | -22.9% | CN(C(=O)COC(=O)Cc1ccccc1[N+](=O)[O-])C1CCS(=O)(=O)C1 (configuration not stated)
60 | -4.3% | COc1cc2c(cc1OC)C(C(=O)Nc1cccc(C)n1)C(c1cccnc1)N(C)C2=O (configuration not stated)

# Single values from above.
# For VDR inhibitor, no. 46 shows -3.3%
# For VDR inhibitor, no. 50 shows -14.3%

# Following part:
no. | VDR inhibitor | compound
61 | -9.0% | COc1ccc(NC(=O)Cc2coc3cc(C)ccc23)cn1
62 | -6.0% | COc1ccc(NC(=O)C2CCC2)cc1S(=O)(=O)Nc1cc(C)ccc1Br
63 | 4.8% | CCOc1ccc(C(=O)NC(Cc2ccccc2)C(=O)OC)cc1 (configuration not stated)
64 | -2.1% | COc1cc(OC)cc(C2C(C#N)=C(N)Oc3n[nH]c(-c4cccnc4)c32)c1 (configuration not stated)
65 | 11.9% | Cc1cc(C)nc(NC2=NCC(=O)N2c2ccccc2)n1
66 | 23.2% | O=C(OCc1nnc(-c2ccccc2)o1)C1CC(=O)N(CCc2ccccc2)C1 (configuration not stated)
67 | -13.5% | NS(=O)(=O)c1ccc(NC(=O)COC(=O)c2cnccn2)cc1
68 | 6.1% | O=C(CCCc1nc2ccccc2s1)NCc1ccc(F)cc1
69 | -3.0% | COc1ccc(CN2C(=O)c3ccccc3C2=O)cc1C(=O)N(C)CC(=O)Nc1ccc(F)cc1
70 | 4.1% | O=S(=O)(NCc1cccnc1)c1ccc(Br)s1
71 | -16.3% | CCC(=O)Nc1nnc(S(=O)(=O)N(C)c2cc(C)cc(C)c2)s1
72 | 12.6% | S=C(NCCc1ccccc1)NCC(c1ccco1)N1CCCCC1 (configuration not stated)
73 | 9.5% | CCC(CC)C(=O)NCCCN1CCOCC1
74 | -7.2% | CCOC(=O)CC(=O)CSc1ncnc2c1nnn2-c1ccccc1
75 | 17.0% | O=C(c1ccncc1)c1ccc([N+](=O)[O-])cc1
76 | 12.3% | COc1ccc(OC)c2sc(Cl)nc12
77 | -14.9% | Cc1ccc(OCC(O)Cn2c(NCCc3ccccc3)nc3c2c(=O)[nH]c(=O)n3C)cc1 (configuration not stated)
78 | 1.9% | O=C(CN1CCOCC1)Nc1ccccc1C(=O)O
79 | -14.9% | CCOc1ccc(N(CC(=O)NC2CCCCC2)C(=O)CCC(=O)Nc2cc(C)ccn2)cc1
80 | -0.3% | O=C1C=C(c2cccc(CO)c2)C[C@@H](c2ccc3c(c2)OCO3)C1

# Reprinted from the part before: two entries, then new ones.
no. | VDR inhibitor | compound
79 | -14.9% | CCOc1ccc(N(CC(=O)NC2CCCCC2)C(=O)CCC(=O)Nc2cc(C)ccn2)cc1
80 | -0.3% | O=C1C=C(c2cccc(CO)c2)C[C@@H](c2ccc3c(c2)OCO3)C1
81 | -2.6% | O=C(NCc1cccnc1)C1CCCN(S(=O)(=O)c2ccc(Br)cc2)C1 (configuration not stated)
82 | u | Cc1cccc(NCCC(=O)c2ccc([N+](=O)[O-])cc2)c1C
83 | 89.1µM* | COc1cc(C(=S)N2CCOCC2)cc(OC)c1OS(=O)(=O)c1ccc(Cl)cc1
84 | 8.4% | COc1ccc(CN(C)S(=O)(=O)c2nnc(NC(=O)c3cccc(F)c3)s2)cc1OC
85 | 14.4% | CCC(C)NS(=O)(=O)c1ccc(N2CCCCS2(=O)=O)cc1 (configuration not stated)
86 | 2.9% | O=C(C1CCN(S(=O)(=O)c2ccccc2)CC1)N1CCN(c2ccccc2F)CC1
87 | u | COc1ccc(CN2CCN(Cc3ccc(C)cc3)C(CCO)C2)cc1OC (configuration not stated)
88 | 10.7% | O=C(CN1CCCC1)N1CCN(c2ccccc2)CC1
89 | 11.8% | O=C(CCN1C(=O)C2C3C=CC(C3)C2C1=O)Nc1c(F)cccc1F (configuration not stated)
90 | 2.5% | CCCNc1nc(C)cc(-c2cc(C(=O)Nc3ccccc3)on2)n1
91 | -1.8% | CCN(CC)C(=O)CSc1nnc(CNc2ccc(F)cc2)n1-c1ccccc1
92 | -26.5% | CC1CCC(C(C)C)C(OC(=O)Cn2nnc3c(cnn3-c3ccccc3)c2=O)C1 (configuration not stated)
93 | -2.7% | Cc1ccc(N/C(N)=N/c2nc(CSc3ccc(C)cc3)cc(=O)[nH]2)cc1
94 | -7.8% | CCSc1nnc(NC(=O)C2CCCCC2C(=O)O)s1 (configuration not stated)
95 | 7.4% | CS(=O)(=O)c1ccc2nc(NC(=O)C3CCCCC3)sc2c1
96 | 2.2% | Cc1c(O)c2ccccc2oc1=O
97 | 3.1% | CCc1cc(C(=O)Nc2cnn(Cc3ccccc3C)c2)no1
98 | 8.4% | CCOC(=O)CN1C(=O)C(=O)N(Cc2c(Cl)cccc2Cl)C1=O
99 | 2.8% | CN(C)S(=O)(=O)c1ccc(N2CCCC2)c(C(=O)Nc2nc(-c3ccc(F)c(F)c3)cs2)c1
100 | 9.5% | O=C(Nc1nc2ccc(F)cc2s1)c1ccccn1
101 | 1.3% | COc1ccccc1NC(=O)C1=C(C)Nc2nc(SCc3ccccc3Cl)nn2C1c1ccncc1 (configuration not stated)
102 | -6.0% | Cc1cccc(NC(=O)c2cccnc2Cl)n1
103 | -1.0% | COC(=O)COn1c(-n2nc(C)cc2C)nc2ccccc2c1=O
104 | -3.4% | COc1ccc(Oc2cnc3ccccc3n2)cc1
105 | -8.0% | CCOC(=O)C1(CCSC)NC(c2ccco2)C2C(=O)N(CC)C(=O)C21 (configuration not stated)
106 | -7.0% | CCC(=O)NC(=S)Nc1ccccc1C(=O)OC
107 | u | COc1ccc(-c2c3c([nH]c(=S)c2C#N)CCC3)cc1
108 | 6.3% | O=C(CC1NC2CCCCC2NC1=O)Nc1ccc2c(c1)OCO2 (configuration not stated)
109 | 0.1% | O=C(Cc1cccs1)Nc1cc(S(=O)(=O)N2CCCCC2)ccc1Cl
110 | -3.5% | O=C(Nc1ccncc1)Nc1cccc(C(F)(F)F)c1
111 | 8.8% | Cc1nc(NC(=O)c2ccc(-c3cc4ccccc4oc3=O)cc2)ccc1Br
112 | -1.3% | CNC(=O)C12N=CNN=C1N(C)C(=O)N2C (configuration not stated)
113 | -0.9% | CCOC(=O)Cc1cc(=O)[nH]c(=O)[nH]1
114 | 0.5% | CCOC(=O)C1C(c2cc(OC)c(O)c(OC)c2)NC(=S)NC1(O)C(F)(F)F (configuration not stated)
115 | -2.6% | CCOc1ccc(NC(=O)COC(=O)c2cccnc2)cc1
116 | -1.9% | CC(C)N1C(=S)SC2CS(=O)(=O)C=C21 (configuration not stated)
117 | 9.2% | c1ccc2c(-c3nnc4n3CCCCC4)c[nH]c2c1
118 | 1.3% | COc1ccc(N=C/C=C2/C=C(c3ccccc3)OC(C)(C)O2)cc1
119 | 3.2% | Cc1ccc(OCc2cc(C(=O)N3CCc4[nH]cnc4C3c3ccccn3)no2)cc1C (configuration not stated)
120 | 11.2% | CCN1CCN(C(CNS(=O)(=O)c2cccs2)c2cccnc2)CC1 (configuration not stated)

# Ordered by count of non-hydrogen atoms (low to high): 3 of the compounds above.
no. | VDR inhibitor | compound
116 | -1.9% | CC(C)N1C(=S)SC2CS(=O)(=O)C=C21 (configuration not stated)
31 | 1.3% | OCCCCc1nccc2c1[nH]c1ccccc12
62 | -6.0% | COc1ccc(NC(=O)C2CCC2)cc1S(=O)(=O)Nc1cc(C)ccc1Br

# Marked active in VDR inhibitor, of those listed so far:
no. | VDR inhibitor | compound
36 | 22.4µM* | COC(=O)c1cc(=O)c(O)c2c(O)c(O)ccc2c1
83 | 89.1µM* | COc1cc(C(=S)N2CCOCC2)cc(OC)c1OS(=O)(=O)c1ccc(Cl)cc1

# From PubChem

# An excerpt, so the mix of outcomes need not match the whole.
